TSHR ag = agonists of human thyroid stimulating hormone receptor | P16473 | HEK293-CNG-TSHR cells (CNG channel as cAMP sensor), membrane potential dye, cAMP | Potency, µM (highest dose often 57.1 µM), for inactives: at the top dose activation, most hits filed as activators | 0.48% of 73,000 active | AID 926; active = well fitted activation curve of enough size with the parental cells flat; inconclusive = any curve in the parental cells; inactive = parental cells flat and receptor cells flat or falling; further: % of control where 0% means no effect; weak receptor curves with flat parental cells got no call and are not listed
Target sequence (P16473 whole entry, looked up): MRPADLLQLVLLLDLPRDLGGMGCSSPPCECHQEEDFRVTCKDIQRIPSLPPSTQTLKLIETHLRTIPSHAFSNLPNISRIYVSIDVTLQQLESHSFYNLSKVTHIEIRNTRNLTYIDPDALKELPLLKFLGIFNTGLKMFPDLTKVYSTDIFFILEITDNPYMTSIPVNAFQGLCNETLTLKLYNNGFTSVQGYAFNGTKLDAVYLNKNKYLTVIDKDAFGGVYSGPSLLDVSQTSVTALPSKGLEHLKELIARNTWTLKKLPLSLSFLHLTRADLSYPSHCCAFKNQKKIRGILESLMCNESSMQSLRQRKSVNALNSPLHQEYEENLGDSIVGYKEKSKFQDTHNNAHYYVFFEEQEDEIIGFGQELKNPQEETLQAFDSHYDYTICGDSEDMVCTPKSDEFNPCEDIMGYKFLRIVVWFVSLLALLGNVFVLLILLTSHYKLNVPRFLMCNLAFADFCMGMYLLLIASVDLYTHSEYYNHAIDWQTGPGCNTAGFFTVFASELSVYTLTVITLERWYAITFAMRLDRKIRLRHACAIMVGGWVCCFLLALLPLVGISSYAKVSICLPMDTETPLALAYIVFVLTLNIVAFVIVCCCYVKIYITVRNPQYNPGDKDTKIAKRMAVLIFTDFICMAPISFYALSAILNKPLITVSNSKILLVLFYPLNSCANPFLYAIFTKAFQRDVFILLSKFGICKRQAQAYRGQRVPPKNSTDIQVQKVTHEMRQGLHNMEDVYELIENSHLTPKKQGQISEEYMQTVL
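HEK 293 cells stably expressing TSHR and a cAMP-gated CNG channel; parental CNG-only cells as counterscreen. Cells preloaded 60 min with membrane potential dye plus 100 uM RO 20-1724, then compound 30 min; fluorescence read at 590 nm.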
AID923 = qHTS Assay for Allosteric/Competitive Inhibitors of Caspase-1: Spectroscopic Profiling in AFC Spectral Region. compound fluorescence, AFC spectral region (405/520 nm); almost no hit is shown here. Potency, µM (top dose mostly 57.5 µM), for the others: top-dose fluorescence increase, actives largely listed as activators. 1.1% of 75,000 active. AID 923, 2007; active means well fitted activation curve with a large enough effect; inconclusive means small, poorly fitted or top-dose-only effect;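 further: 0% is about no effect; scaled to a free AFC standard on each plate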
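Baseline compound fluorescence (AFC region, 405 nm ex/520 nm em) taken from the intercept of kinetic reads with 50 nM caspase-1 and 5 uM Ac-WEHD-AFC; normalized to an on-plate AFC standard curve; compounds titrated up to 57 uM.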
Active calls of the source: *; ? = inconclusive; / = no result given. Potency means the concentration at half of the fitted maximal effect.

#1 COC(=O)[C@@H]1C[C@@H]2CC[C@@H](O)C[C@@H]2N1Cc1ccc(C)s1
  TSHR ag = /
  AID923 = 0.5%

#2 O=C(/C=C/c1ccc(O)cc1)c1cccs1
  TSHR ag = /
  AID923 = 2.4%

#3 O=c1c(O)cc(C2Oc3cc(O)cc(O)c3CC2O)cc2c(C3Oc4cc(O)cc(O)c4CC3O)cc(O)c(O)c12 (stereo not drawn)
  TSHR ag = /
  AID923 = 5.8%

#4 CC(=O)OC1CC2C(C)(C)C(O)CC[C@@]2(C)C2CC[C@@]3(C)C(c4ccoc4)OC(=O)C4O[C@@]43[C@]12C (stereo partly drawn)
  TSHR ag = /
  AID923 = 0.3%

#5 CC(=O)[C@@H]1[C@H]2[C@H](C(=O)[C@H]3OC[C@@H]2O3)[C@H]2C=Cc3ccccc3N21
  TSHR ag = /
  AID923 = 16%

#6 O=C(O)/C=C/C=C/c1ccccc1
  TSHR ag = /
  AID923 = -2.4%

#7 NC(CSCSCC(N)C(=O)O)C(=O)O (stereo not drawn)
  TSHR ag = /
  AID923 = 0.8%

#8 CC(=O)OC1CCC2(O)CC1(C)CCC1C2CC1(C)C (stereo not drawn)
  TSHR ag = /
  AID923 = -1.5%

#9 CCOc1ccc(N(CC(=O)Nc2nccs2)S(=O)(=O)c2c(C)noc2C)cc1
  TSHR ag = /
  AID923 = 2.2%

#10 CCC(CCC(C)C1CCC2C3CC=C4CC(OC(C)=O)CC[C@@]4(C)C3CC[C@@]12C)C(C)C (stereo partly drawn)
  TSHR ag = /
  AID923 = -4.0%

#11 Cc1csc(-c2nc3ccccc3n2C)n1
  TSHR ag = /
  AID923 = -3.7%

#12 O=C(CSc1nnnn1-c1ccccc1)Nc1ncc2c(n1)CC(c1ccco1)CC2=O (stereo not drawn)
  TSHR ag = /
  AID923 = -0.8%

#13 COc1ccc(-c2c(O)c3c(OC)c4c(cc3oc2=O)OC(C)(C)CC4)cc1
  TSHR ag = /
  AID923 = -1.9%

#14 CCOc1ccc(N(CC(=O)NC2CCCCC2)S(=O)(=O)c2c(C)noc2C)cc1
  TSHR ag = /
  AID923 = -1.6%

#15 COc1cc2c(C)c3c4c(cc(OC)c(OC)c4c2cc1OC)CCN3C
  TSHR ag = /
  AID923 = 6.0%

#16 CC(=O)N[C@@H]1C(O)OC(CO)C(O)C1O (stereo partly drawn)
  TSHR ag = /
  AID923 = 0.3%

#17 C=C[C@](C)(O)CCC1C(=C)CC(O)C2C(C)(C)CCCC12C (stereo partly drawn)
  TSHR ag = /
  AID923 = -2.5%

#18 COc1ccc(C2Oc3cc(OC)cc(OC)c3CC2O)cc1 (stereo not drawn)
  TSHR ag = /
  AID923 = -1.8%

#19 CC1(C)OC2C[C@](O)(C(N)=O)C[C@H](O)[C@H]2O1 (stereo partly drawn)
  TSHR ag = /
  AID923 = 0.7%

#20 C[C@@H]1O[C@@H](OC[C@H]2O[C@@H](Oc3c(-c4cccc(O)c4O)oc4cc(O)cc(O)c4c3=O)[C@H](O)[C@@H](O)[C@@H]2O)[C@H](O)[C@H](O)[C@H]1O
  TSHR ag = /
  AID923 = -2.7%

#21 C=CCSSSCC=C
  TSHR ag = /
  AID923 = -0.7%

#22 COc1ccc(C2CC(=O)c3c(O)cc(OC4OC(COC5OC(C)C(O)C(O)C5O)C(O)C(O)C4O)cc3O2)cc1O (stereo not drawn)
  TSHR ag = /
  AID923 = 0.3%

#23 COC(=O)c1ccc(C23CC4(C2)[C@H](CN(Cc2ccc(-c5ccccc5)cc2)[C@@H]4c2ccccc2)C3c2ccc(Cl)nc2)cc1 (stereo partly drawn)
  TSHR ag = /
  AID923 = 3.8%

#24 COc1c(N2C[C@@H]3CCCN[C@H]3C2)c(F)cc2c(=O)c(C(=O)O)cn(C3CC3)c12
  TSHR ag = /
  AID923 = 15%

#25 COc1ccc2c(c1OC)C(=O)OC2CC(=O)c1ccc(N(C)C)cc1 (stereo not drawn)
  TSHR ag = /
  AID923 = 1.6%

#26 O=C(C1CCCO1)N1CCN(S(=O)(=O)c2cccc3nsnc23)CC1 (stereo not drawn)
  TSHR ag = /
  AID923 = 1.0%

#27 COc1ccc(S(=O)(=O)Nc2nnc(C(C)(C)C)s2)cc1
  TSHR ag = /
  AID923 = -1.6%

#28 Cc1cccc(-c2cc(=O)c3cc(C)ccc3o2)c1
  TSHR ag = /
  AID923 = -1.1%

#29 CC(=O)NCCc1c(Cc2ccccc2)[nH]c2ccccc12
  TSHR ag = /
  AID923 = -0.4%

#30 COc1c(O)c(O)cc2c1oc1c3ccccc3oc(=O)c21
  TSHR ag = /
  AID923 = 0.0%

#31 CC(=O)NC(CC(=O)O)C(=O)NC(CCC(=O)O)C(=O)O (stereo not drawn)
  TSHR ag = /
  AID923 = -2.7%

#32 CCOC(=O)N1CCN(C(c2ccc(F)cc2)c2sc3nc(C)nn3c2O)CC1 (stereo not drawn)
  TSHR ag = /
  AID923 = -3.0%

#33 c1ccc(CNn2c(N3CCOCC3)nc3ccccc32)cc1
  TSHR ag = /
  AID923 = 1.6%

#34 O=C(O)c1cc2cc(Cl)ccc2[nH]1
  TSHR ag = /
  AID923 = -2.6%

#35 Cc1c(C(=O)OCc2ccccc2)[nH]c2c1C(=O)CC(c1ccco1)C2 (stereo not drawn)
  TSHR ag = /
  AID923 = 0.0%

#36 OC1CCCN(Cc2cccc3ccccc23)C1 (stereo not drawn)
  TSHR ag = /
  AID923 = 0.2%

#37 CC(C)C[C@@H](CC(=O)N[C@@H](CCCN)CC(=O)N[C@@H]1CCCC[C@H]1C(=O)N[C@H](CC(=O)N[C@@H](CCC(=O)O)CC(=O)O)Cc1ccccc1)NC(=O)[C@@H]1CCCC[C@H]1N
  TSHR ag = ?
  AID923 = /

#38 NCCC[C@@H](CC(=O)N[C@@H]1CCCC[C@H]1C(=O)N[C@H](CC(=O)N[C@@H](CCC(=O)O)CC(=O)O)Cc1c[nH]c2ccccc12)NC(=O)C[C@H](Cc1c[nH]c2ccccc12)NC(=O)[C@@H]1CCCC[C@H]1N
  TSHR ag = 4%
  AID923 = /

#39 CC(C)C[C@@H](CC(=O)N[C@@H](CCCN)CC(=O)N[C@@H]1CCNC[C@H]1C(=O)N[C@H](CC(=O)N[C@@H](CCC(=O)O)CC(=O)O)Cc1ccccc1)NC(=O)[C@@H]1CCCC[C@H]1N
  TSHR ag = ?
  AID923 = /

#40 CC(C)[C@@H](CC(=O)N[C@@H]1CCCC[C@H]1C(=O)N[C@H](CC(=O)N[C@@H](CCC(=O)O)CC(=O)O)Cc1ccccc1)NC(=O)C[C@H](CO)NC(=O)[C@@H]1CCCC[C@H]1N
  TSHR ag = 5%
  AID923 = /

Retrieved by structure from above:
#32 CCOC(=O)N1CCN(C(c2ccc(F)cc2)c2sc3nc(C)nn3c2O)CC1 (stereo not drawn)
  TSHR ag = /
  AID923 = -3.0%

#38 NCCC[C@@H](CC(=O)N[C@@H]1CCCC[C@H]1C(=O)N[C@H](CC(=O)N[C@@H](CCC(=O)O)CC(=O)O)Cc1c[nH]c2ccccc12)NC(=O)C[C@H](Cc1c[nH]c2ccccc12)NC(=O)[C@@H]1CCCC[C@H]1N
  TSHR ag = 4%
  AID923 = /

(list continues)
#41 CC(C)[C@@H](CC(=O)N[C@@H]1CCNC[C@H]1C(=O)N[C@H](CC(=O)N[C@@H](CCC(=O)O)CC(=O)O)Cc1ccccc1)NC(=O)C[C@H](CO)NC(=O)[C@@H]1CCCC[C@H]1N
  TSHR ag = ?
  AID923 = /

#42 CC(C)C[C@@H](CC(=O)N[C@@H](CCC(=O)O)CC(=O)O)NC(=O)[C@@H]1CCCC[C@H]1NC(=O)C[C@@H](NC(=O)C[C@H](Cc1ccccc1)NC(=O)[C@@H]1CNCC[C@H]1N)C(C)C
  TSHR ag = -1%
  AID923 = /

#43 NCCC[C@@H](CC(=O)N[C@@H]1CCCC[C@H]1C(=O)N[C@H](CC(=O)N[C@@H](CCC(=O)O)CC(=O)O)Cc1c[nH]c2ccccc12)NC(=O)C[C@H](CO)NC(=O)[C@@H]1CNCC[C@H]1N
  TSHR ag = ?
  AID923 = /

#44 CC(C)C[C@@H](CC(=O)N[C@H](CC(=O)N[C@@H]1CCCC[C@H]1C(=O)N[C@H](CC(=O)N[C@@H](CCC(=O)O)CC(=O)O)CC(C)C)C(C)C)NC(=O)[C@@H]1CCCC[C@H]1N
  TSHR ag = 8%
  AID923 = /

#45 CC(C)C[C@@H](CC(=O)N[C@@H](CCC(=O)O)CC(=O)O)NC(=O)[C@@H]1CCCC[C@H]1NC(=O)C[C@H](CCCN)NC(=O)C[C@H](Cc1ccccc1)NC(=O)[C@@H]1CCCC[C@H]1N
  TSHR ag = 4%
  AID923 = /

#46 CC(C)[C@@H](CC(=O)N[C@@H]1CCCC[C@H]1C(=O)N[C@H](CC(=O)N[C@@H](CCC(=O)O)CC(=O)O)Cc1ccccc1)NC(=O)C[C@H](CO)NC(=O)[C@@H]1CNCC[C@H]1N
  TSHR ag = 6%
  AID923 = /

#47 CC(C)C[C@@H](CC(=O)N[C@@H](CCC(=O)O)CC(=O)O)NC(=O)[C@@H]1CNCC[C@H]1NC(=O)C[C@@H](NC(=O)C[C@H](Cc1ccccc1)NC(=O)[C@@H]1CNCC[C@H]1N)C(C)C
  TSHR ag = 5%
  AID923 = /

Entries of single compounds, looked up by structure. Screens in order: TSHR ag	AID923
Shown for NC(CSCSCC(N)C(=O)O)C(=O)O (stereo not drawn) : /	0.8%
Shown for CCOC(=O)N1CCN(C(c2ccc(F)cc2)c2sc3nc(C)nn3c2O)CC1 (stereo not drawn) : /	-3.0%
Shown for CC(C)[C@@H](CC(=O)N[C@@H]1CCNC[C@H]1C(=O)N[C@H](CC(=O)N[C@@H](CCC(=O)O)CC(=O)O)Cc1ccccc1)NC(=O)C[C@H](CO)NC(=O)[C@@H]1CCCC[C@H]1N : ?	/
Shown for NCCC[C@@H](CC(=O)N[C@@H]1CCCC[C@H]1C(=O)N[C@H](CC(=O)N[C@@H](CCC(=O)O)CC(=O)O)Cc1c[nH]c2ccccc12)NC(=O)C[C@H](Cc1c[nH]c2ccccc12)NC(=O)[C@@H]1CCCC[C@H]1N : 4%	/

A portion of the library. The share of hits here may be higher or lower than overall.
